From PubChem BioAssay
NPYLR7 ag = mosquito NPYLR7 agonism; HEK293T NPYLR7/Galpha15, GCaMP6s calcium fluorescence; 270,000 tested, 0.15% active; activation, % at 10 µM; in the data active = activation above about 40%;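 note: 0% = vehicle and 100% = reference agonist at the receptor; some compounds past the cut are filed as inactive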
NPYLR7 ag max-min = second read-out of NPYLR7 ag, no call of its own (marks repeat the call); activation, %; measured here: Max-Min RFU normalised activation; some inactives read as strong as hits;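 span of the calcium signal over five minutes; 0% = vehicle and 100% = native peptide agonist; compound fluorescence can raise it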
Starred values were filed as active, the others as inactive; & = joins results of further samples. Some of the compounds tested; the hit share may differ from the screen's.

SMILES	NPYLR7 ag	NPYLR7 ag max-min
CC1C(=O)N(c2ccc(F)c(Cl)c2)CCN1C(=O)C1CCCC1 (stereo not drawn)	-5	-1
c1ccc(Nc2ccc(OCc3nn[nH]n3)cc2)cc1	-16	-18
Cc1ccc(NC(=O)CSc2c(C)[nH]c3ccccc23)c(C)c1	3	3
CN(C)CC1(O)CCN(C(=O)C2CCN(C(=O)c3ccncc3)CC2)C1 (stereo not drawn)	4	1
COc1c[nH]c(C(=O)N2CCC(=O)N(CC3CC3)C(C(C)C)C2)cc1=O (stereo not drawn)	20	16
CN(C(=O)CSc1nnc(C2CC2)n1C1CC1)C1CCS(=O)(=O)C1 (stereo not drawn)	-1	1
COc1cccc(/C=C2/SC(=Nc3ccccc3)NC2=O)c1	-10	-14
CCOC(=O)c1ccc(NC(=O)C2CC(=O)N(C)C(=Nc3ccc(F)cc3)S2)cc1 (stereo not drawn)	3	1
CCOC(=O)N1CCN(C2CCCN(C(=O)c3ccc4nccnc4c3)C2)CC1 (stereo not drawn)	7	6
CC(C(=O)NCCC12CC3CC(CC(C3)C1)C2)n1ccnc1 (stereo not drawn)	-5	-6
COc1ccc(CN(C)C(=O)C2CC2c2ccccc2F)cc1O (stereo not drawn)	-1	-2
O=C1Nc2ccccc2C12OCCCO2	-1	3
CCCS(=O)(=O)c1nc(S(=O)(=O)c2ccc(C)cc2)c(NCc2ccccc2OC)s1	1	37
CN1CC(=O)N(CC(=O)NC(=O)NC2CCCCC2)C1=O	2	-3
CC(Cc1cnccn1)NC(=O)c1cccc(CC2CCNCC2)c1 (stereo not drawn)	-1	-10
O=C(Cn1cnc(-c2ccc(F)cc2)cc1=O)NCCC(c1ccccc1)c1ccccc1	7	1
O=C(CNC(c1ccc(F)cc1)c1cccs1)Nc1ccccc1F (stereo not drawn)	-1	-1
COc1cc(O)c(C(=O)O)c(O)c1	-11	-17
Cc1ccc(-n2nnc3c(=O)n(CC#N)cnc32)cc1C	-3	-7
CSc1ncccc1C(=O)NC(c1cccc(F)c1)c1nccn1C (stereo not drawn)	7	4
CCC(CC)NC(C)c1nncn1C (stereo not drawn)	10	-5
CC(C)CC1=NN(C(=O)c2cccc(Cl)c2)C(O)(C(F)(F)F)C1 (stereo not drawn)	0	1
COc1ccccc1CN1CCC(CN(CC(C)C)C(=O)c2cnc3ccccc3c2)CC1	-2	-11
C=CCN(CC(=O)Nc1ccc(Cl)cc1F)Cc1ccccn1	1	-1
CC(Cc1cccs1)NS(=O)(=O)c1ccccc1 (stereo not drawn)	-1	-1

A few values from the results shown:
`COc1ccccc1CN1CCC(CN(CC(C)C)C(=O)c2cnc3ccccc3c2)CC1` – NPYLR7 ag max-min = -11
`CCOC(=O)c1ccc(NC(=O)C2CC(=O)N(C)C(=Nc3ccc(F)cc3)S2)cc1` (stereo not drawn) – NPYLR7 ag max-min = 1
`COc1c[nH]c(C(=O)N2CCC(=O)N(CC3CC3)C(C(C)C)C2)cc1=O` (stereo not drawn) – NPYLR7 ag = 20
`CC(Cc1cnccn1)NC(=O)c1cccc(CC2CCNCC2)c1` (stereo not drawn) – NPYLR7 ag max-min = -10
`COc1ccc(CN(C)C(=O)C2CC2c2ccccc2F)cc1O` (stereo not drawn) – NPYLR7 ag max-min = -2

The listing picks up with the 2 entries that preceded the break.
SMILES	NPYLR7 ag	NPYLR7 ag max-min
C=CCN(CC(=O)Nc1ccc(Cl)cc1F)Cc1ccccn1	1	-1
CC(Cc1cccs1)NS(=O)(=O)c1ccccc1 (stereo not drawn)	-1	-1
CCc1c(C(=O)Nc2c(C)cc(C)cc2C)cnn1-c1ccccn1	-1	-5
CCn1ncnc1CN1CCC(CNC(=O)c2ccccn2)CC1	2	2
CCOC(=O)CC(=O)N1CCN(Cc2cc(=O)c(OCc3ccc(-c4ccccc4C#N)cc3)co2)CC1	-1	-5
COCOc1ccc(-c2ncc(OC)nc2NC(=O)c2ccsc2)cc1	7	-7
CCc1ccc2c(c1)NC(=O)C2(C)Cc1ccc(C(F)(F)F)o1 (stereo not drawn)	1	1
Cc1noc(C(C)Sc2nc3cc(Cl)ccc3c(=O)n2C(C)C)n1 (stereo not drawn)	4	3
CC(C)c1ccccc1OC1CC2CCC(C1)N2C(=O)c1ccc(CSCc2cccs2)cc1 (stereo not drawn)	3	13
COc1cccc(OCc2nc(C(=O)N(C)C(C)c3nccs3)co2)c1 (stereo not drawn)	5	1
CN(CC1CCC(N)CC1)CC1(CO)CCCC1 (stereo not drawn)	7	7
C=CCOc1c(OC)ccc2c1CN(C)C(=O)CCN2CC(O)C(F)(F)F (stereo not drawn)	-2	-1
COc1ccc2c(c1)CCCN2C(=O)CSc1nc2ccccc2c(=O)n1CCCOC(C)C	0	8
Cc1nc(C(NS(=O)(=O)c2cccc3ccccc23)C(C)C)n[nH]1 (stereo not drawn)	0	17
CC(C)n1ncc2cc(NC(=O)Cn3nc(-c4cccs4)oc3=O)cnc21	2	-2
Cc1ccc(-c2n[nH]c(=S)n2CCC(=O)NCc2ccco2)cc1	4	-1
O=C(NCC1(N2CCSCC2)CCCC1)C1(c2cccc(Br)c2)CC1	0	0
CCn1c(C)c(/C=C/c2nc3ccc(I)cc3c(=O)n2C)c2ccccc21	28	6
Nc1cc(-c2ccc(Cl)cc2)nn1-c1ccc(C(=O)NC(c2ccccc2)c2ccccc2)cc1	-9	-10
NC(=O)CCCCCN1C(=O)/C(=C/c2ccc(Cl)cc2)SC1=S	3	-10
O=c1nc(SCc2ccccn2)c2c(n1CCO)CCCC2	-10	-16
COCC(=O)Nc1ccc(N(C)C)c(CN(C(=O)NC(C)(C)C)C(C)c2ccccc2)c1 (stereo not drawn)	2	3
CC(=O)Nc1ccc(NC(=O)C2CCN(c3nccc(Nc4ccccc4)n3)CC2)cc1	6	5
O=C(c1cc(C(F)(F)F)[nH]n1)N1CC[C@H](CO)[C@H](O)C1	-3	-3
Cc1cccc(-c2nnc(SCC(=O)NC(C)C3CC3)n2CC(N)=O)c1 (stereo not drawn)	-3	-4
COC1CCCCC1NC(=O)Nc1cccc(-c2nccn2C)c1 (stereo not drawn)	-4	-5
Cc1c(C)n2c3c(=O)n(CCC(C)C)c(=O)n(C)c3nc2n1CCC(C)C	-1	3

Reformatted: four of the compounds above
CCOC(=O)CC(=O)N1CCN(Cc2cc(=O)c(OCc3ccc(-c4ccccc4C#N)cc3)co2)CC1
  NPYLR7 ag = -1; NPYLR7 ag max-min = -5
CCc1c(C(=O)Nc2c(C)cc(C)cc2C)cnn1-c1ccccn1
  NPYLR7 ag = -1; NPYLR7 ag max-min = -5
Cc1cccc(-c2nnc(SCC(=O)NC(C)C3CC3)n2CC(N)=O)c1 (stereo not drawn)
  NPYLR7 ag = -3; NPYLR7 ag max-min = -4
CC(C)c1ccccc1OC1CC2CCC(C1)N2C(=O)c1ccc(CSCc2cccs2)cc1 (stereo not drawn)
  NPYLR7 ag = 3; NPYLR7 ag max-min = 13

Additional compounds:
SMILES	NPYLR7 ag	NPYLR7 ag max-min
Cc1cccn2c(CC(=O)NCc3cc(-c4ccco4)on3)cnc12	1	-1
CC(NC(=O)Cn1cnc([N+](=O)[O-])n1)C1CC2CCC1C2 (stereo not drawn)	-4	-10
CCCCC(CC)C(=O)Nc1ccc(N2CCN(c3ccccc3OC)CC2)c(C(=O)NCCCN(C)C)c1 (stereo not drawn)	-2	2
Cc1ccccc1C(NC(=O)C1CCN(C(=O)c2ccc3c(c2)OCO3)CC1)c1ccccn1 (stereo not drawn)	-6	-17
CN(C)c1ccc(C(=O)N2CCN(c3ccc(F)cc3)CC2)cc1	-2	-4
CC(C)COC(C)c1noc(Cn2nccc2-c2ccncc2)n1 (stereo not drawn)	5	-1
C=CCn1c(COc2cc(C)ccc2C(C)C)nnc1SCC(N)=O	2	16
O=c1oc(-c2ccco2)nn1Cc1cnn(-c2ccccc2)n1	-5	-8
O=C(COC(=O)CC12CC3CC(CC(Br)(C3)C1)C2)NC1CCS(=O)(=O)C1 (stereo not drawn)	5	4
c1ccc(COc2cccn3c(NC4CCCCC4)c(C4CCCCC4)nc23)cc1	-1	7
CCCNC(=O)N(CCN1CCOCC1)Cc1nccn1Cc1ccc(C(F)(F)F)cc1	3	13
COc1ccc(CC(=O)N2CCN(C(=O)c3cc4ccoc4n3Cc3ccccc3C)CC2C)cc1 (stereo not drawn)	2	14
COc1ccc(C2C(C(=O)c3ccco3)=C(O)C(=O)N2Cc2cccnc2)cc1 (stereo not drawn)	-6	-6
CCn1nc(C(=O)Nc2ccnn2C2CCCC2)c2ccccc2c1=O	6	4
COCCCNc1nc2ccccc2nc1NS(=O)(=O)c1ccc(C)cc1C	-15	-19
Cc1ccccc1CN1CCC(n2nccc2NC(=O)CCCc2ccccc2)CC1	-1	-4
CSc1ccc(Cn2cc(C(=O)NCc3ccc4c(c3)OCO4)sc2=O)cc1	8	6
CC1(c2ccsc2)NC(=O)N(CC(=O)Nc2cccc(C#N)c2)C1=O (stereo not drawn)	1	7
CN(C)CCN(Cc1cc(Cl)ccc1OS(=O)(=O)c1ccc(F)cc1)C(=O)NC(C)(C)C	-2	10
CC1CC(=O)Nc2c1c(NC(=O)c1cnccn1)nn2C (stereo not drawn)	-14	-17
CCOc1ccccc1N1CCN(S(=O)(=O)c2ccc(C)c(C)c2C)CC1	-3	-4
Cc1nc(CC(=O)O)cs1	3&13	10&12
CC(C)(C)c1ccc(S(=O)(=O)N2CCSCC2)cc1	4	7
Cc1nn(C(C)C(=O)NC2CCCC2)c(=O)c2cc3sccc3n12 (stereo not drawn)	5	4
COCC(=O)N1CCC2(CC1)CN(CCCc1ccccc1)CCN2C	-2	-3

More records:
SMILES	NPYLR7 ag	NPYLR7 ag max-min
COc1cccc(Cc2nsc(N(CCC(=O)N3CCN(c4ccc([N+](=O)[O-])cc4)CC3)C(C)C)n2)c1	-6	-7
COc1ccc(OC)c(CC(=O)N(C)Cc2ccncc2C)c1	27	13
CN1CCc2nc3ccccc3c(C(=O)N[C@@H]3C[C@H]4CC[C@@H]3C4)c2C1	0	19
CCC1CN(C(=O)c2cnn3ccccc23)CCC(=O)N1Cc1ccccc1 (stereo not drawn)	10	7
CCCC[C@@]1(C2CCCC2)Cc2cc(OCC(=O)O)c(Cl)c(Cl)c2C1=O	1	-23
O=c1nc(SCc2ccc([N+](=O)[O-])cc2)nc2ccc(Cl)cn12	-5	-7
CCC(CC)(Cc1nc2ccccc2s1)C(=O)Nc1ccc(N2CCOCC2)cc1	-1	0
O=C(c1cc2ccccc2cn1)N1CCc2c(sc3[nH]c(=O)n(-c4ccccc4C(F)(F)F)c(=O)c23)C1	5	5
COc1ccc(F)c(CN(C)Cc2ncc[nH]2)c1Cl	11	7
O=C(c1c(Cl)cccc1Cl)N1CCC(CCc2ccccc2)CC1	25	20
C=CCN(C)[C@H]1[C@H](OC)C[C@@H]2C[C@H](COC)OC[C@]21O	3	8
CN(C)c1ccc(NS(=O)(=O)c2cn[nH]c2C(C)(C)C)cc1	8	-8
Cc1cccc(-c2noc(N3CCOCC3)c2CN(Cc2ccco2)C(=O)c2ccc(F)cc2)c1	0	8
CCCCOc1ccc(C2=NC(=Cc3ccc(OCC(N)=O)cc3)C(=O)O2)cc1	12	5
CCC(C)n1nccc1NC(=O)C(C)N1CCC(CN2CCCCCC2)CC1 (stereo not drawn)	12	10
CC(C)COCC(O)CN(Cc1cccs1)C1CC1 (stereo not drawn)	18	22
Cc1cc(C)cc(NS(C)(=O)=O)c1	3	0
O=C(c1ccc(C(F)(F)F)cc1)N1CCN(C(C(=O)N2CCSCC2)C2CCCC2)CC1 (stereo not drawn)	7	6
O=C(CN1C(=O)c2cccc3cccc1c23)NCc1cccc(Cl)c1	11	2
COc1ccc(/C=C/CN2CCC3(CCN(C)C3)CC2)cc1	9	7
CCN(CC)CCN(C(=O)c1ccco1)c1nc2c(F)cc(F)cc2s1	12	8
COCCn1c(=NC(=O)c2ccc(N3C(=O)CCC3=O)cc2)sc2cc(S(C)(=O)=O)ccc21	3	1
Clc1ccccc1N1CCN(c2ncnc3[nH]ncc23)CC1	13	10
COc1cccc(CN2CCNC(=O)C2CC(=O)NCCn2nc(C)cc2C)c1OC (stereo not drawn)	-3	-5
COc1ccc(CCN(Cc2ccc(C)s2)C(=O)CN(C(=O)c2ccccc2C)C(C)C)cc1OC	-2	-6

Ordered by heavy-atom count (ascending): three of the compounds above
SMILES	NPYLR7 ag	NPYLR7 ag max-min
O=C(CN1C(=O)c2cccc3cccc1c23)NCc1cccc(Cl)c1	11	2
CCC(C)n1nccc1NC(=O)C(C)N1CCC(CN2CCCCCC2)CC1 (stereo not drawn)	12	10
COc1cccc(Cc2nsc(N(CCC(=O)N3CCN(c4ccc([N+](=O)[O-])cc4)CC3)C(C)C)n2)c1	-6	-7

Additional records.
SMILES	NPYLR7 ag	NPYLR7 ag max-min
CN(C)S(=O)(=O)c1ccc(C(=O)NCc2nnnn2-c2ccccc2)cc1	1	-1
CCN(CC)c1ccc(CN(CCOC)C(=O)c2cccc(F)c2)c(OS(=O)(=O)c2ccc(OC)cc2)c1	21	16
O=C(NCc1cccc(F)c1)C(C1CCCC1)N1CCN(C(=O)Nc2ccc(F)cc2)CC1 (stereo not drawn)	-21	-18
O=C(NCc1ccccc1)Nc1ccc(N2CCCN(Cc3c(F)cccc3F)C2=O)cc1	-1	-3
Cc1nn(-c2ccc(Cl)cc2)c2[nH]c(CCl)cc(=O)c12	12	9
CCc1noc(CSc2nc3sc4c(c3c(=O)n2C(C)C)CCC4)n1	3	0
Cc1ccccc1NC(=O)N1CCN(c2nc(Cc3ccc(Cl)cc3)ns2)CC1	-6	0
Cc1cc(C)n(CC(O)COc2ccc(C(C)(C)C)cc2)n1 (stereo not drawn)	10	10
COC(=O)C1=C(C)N=c2s/c(=C/c3ccc4c(c3)OCO4)c(=O)n2C1c1cccs1 (stereo not drawn)	-7	-11
COC(=O)C1C(=N)OC2=C(C(=O)CCC2)C1c1cccs1 (stereo not drawn)	-8	-8
CCNC(=O)N1CCN(C(=O)c2ccc(Cl)c(Cl)c2)CC1	1	0
COc1ccc(S(=O)(=O)N(CCC(C)C)Cc2c(C)nn(-c3ccccc3)c2N2CCN(C)CC2)cc1	1	7
CCS(=O)(=O)N1CCCCC1CNC(=O)c1ccccc1 (stereo not drawn)	12	9
Cc1cccc(N2CCN(C(=O)c3cc(=O)c(OCc4ccccc4)c[nH]3)CC2)c1	6	3
O=C(COC(=O)C1(c2ccccc2)CCCC1)NC(=O)Nc1ccccc1F	12	6
